High-throughput results as filed in PubChem BioAssay.
CtBP-E1A blk: CtBP/E1A binding inhibition; hit rate 0.49% among 340,000; AlphaScreen GST-E1A/His-CtBP binding, 1536-well; active compounds read low; control for the full effect not named in the record; activity change, % (test concentration not listed); in the data active means activity change below about -65%; inconclusive means about -30% to -65%; inactive means above about -30%; also: % is scaled to controls: 0 for no effect and ±100 for the full control effect
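Protein mix (5X: 125 nM each GST-E1A, His-CtBP) was incubated with pinned compound 2 h at 37 deg C in dark, in 50 mM Tris pH 8.0 buffer with 300 mM NaCl. Glutathione donor and nickel acceptor beads followed; AlphaScreen signal read after 1 h.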
D2 ag: human D2 receptor agonism in beta-arrestin assay. hit rate 0.084% among 360,000. AID 624465. activation, % (no concentration beside the values). DiscoveRx PathHunter D2 beta-arrestin, luminescence, 90 min; 100% = 57 uM dopamine signal. P14416; in the data active = activation above about 40%; inconclusive = about 15% to 40%; inactive = below about 15%; also: compound concentration not given in the record; the text of the record calls up to 30% inactive
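DiscoveRx PathHunter D2 beta-arrestin cells (2,100/well) attached overnight, then compound-stimulated 90 min at 37 C in HBSS/10 mM HEPES/0.1% Tween-20 buffer; beta-galactosidase complementation read by luminescence after 1 h at ambient temperature. Dopamine 57 uM final (EC100) as control.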
D2 PAM: positive allosteric modulators of human D2 dopamine receptor. P14416. DiscoveRx D2 beta-arrestin cells, luminescence, 90 min; 100% = 57 uM dopamine signal. potentiation, % (no concentration beside the values). hit rate 0.23% among 360,000. AID 624464; active = potentiation of 50% or more; inconclusive = 30% to 50%; inactive = 30% or less;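 also: compound concentration not given in the record; tested on top of an EC20 dose of dopamine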
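D2 cells co-treated with compound plus 50 nM dopamine (EC20) for 90 min at 37 deg C to detect potentiation. Beta-arrestin recruitment was read as enzyme-fragment luminescence after 1 h at ambient temperature. Full response was set by 57 uM dopamine.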
TRPV1 PAM: human TRPV1 potentiation. hit rate 0.02% among 320,000. TRPV1-expressing cells, Fluo-8 calcium influx, capsaicin EC20 potentiation; host cell line not named in the record; control for the full effect not named in the record. Q8NER1. potentiation, % at 8.33 µM; active means potentiation above 80%; inconclusive means 30% to 80%; inactive means below 30%; also: 0% is about no effect
Target sequence (Q8NER1 whole entry, looked up): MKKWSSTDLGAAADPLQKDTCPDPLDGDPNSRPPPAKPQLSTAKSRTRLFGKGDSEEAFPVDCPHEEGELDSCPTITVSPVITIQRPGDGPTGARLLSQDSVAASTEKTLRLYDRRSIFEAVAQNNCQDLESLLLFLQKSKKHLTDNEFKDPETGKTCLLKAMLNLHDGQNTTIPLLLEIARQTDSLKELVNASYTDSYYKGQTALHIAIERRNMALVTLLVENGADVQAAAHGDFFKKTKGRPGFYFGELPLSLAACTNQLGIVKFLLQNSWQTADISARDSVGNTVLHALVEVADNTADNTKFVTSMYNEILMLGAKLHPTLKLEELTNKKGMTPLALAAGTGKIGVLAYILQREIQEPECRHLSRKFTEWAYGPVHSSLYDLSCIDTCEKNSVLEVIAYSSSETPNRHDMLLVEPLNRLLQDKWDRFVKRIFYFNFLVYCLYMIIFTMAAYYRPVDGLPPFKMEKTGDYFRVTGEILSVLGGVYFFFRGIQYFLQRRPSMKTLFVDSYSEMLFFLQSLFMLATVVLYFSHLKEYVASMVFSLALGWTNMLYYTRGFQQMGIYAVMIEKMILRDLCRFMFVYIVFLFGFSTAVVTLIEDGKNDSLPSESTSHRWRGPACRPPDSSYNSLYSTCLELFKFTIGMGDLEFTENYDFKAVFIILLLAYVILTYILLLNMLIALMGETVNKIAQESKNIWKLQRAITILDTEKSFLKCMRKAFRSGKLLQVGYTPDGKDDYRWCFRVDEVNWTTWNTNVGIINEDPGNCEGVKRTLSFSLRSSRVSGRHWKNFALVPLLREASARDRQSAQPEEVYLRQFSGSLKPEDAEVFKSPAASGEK
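Fluo-8 calcium influx in TRPV1-expressing cells, kinetic read (ex 480/em 520 nm). Compound added and read 3 min for agonist activity, followed by capsaicin at EC20 final and 2 min further read for enhancement.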
Six1-Eya2 inh: Six1/Eya2 interaction inhibition; AID 651725; Q15475+O00167; hit rate 0.56% among 360,000; activity change, % (concentration not given with the values); AlphaScreen GST-Six1/His-Eya2 binding, biochemical; active compounds read low; control for the full effect not named in the record; in the data active = activity change below about -65%; inconclusive = about -30% to -65%; inactive = above about -30%; also: % is scaled to controls: 0 for no effect and ±100 for the full control effect
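AlphaScreen with GST-Six1 and His-Eya2 (5X mix: 250 nM and 500 nM), glutathione donor and nickel acceptor beads; buffer 50 mM Tris pH 8.0, 300 mM NaCl, 1 mM TCEP; 1 h at 37 C in the dark.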
PINK1 expr mod: changes PINK1 expression | PINK1 immunofluorescence, high-content cytometry, 24 h | AID 624263 | hit rate 0.2% among 410,000 | Potency, µM (highest dose often 76.6 µM), without a hit: top-dose activation (PINK1 increase), actives largely listed as activators; active = well fitted activation curve with a large enough effect; inconclusive = small, poorly fitted or top-dose-only effect; inactive = flat fitted curve, though single readings scatter; cell line not stated here;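 also: potency is read from the fitted curve at half-maximal effect; % of control where 0% means no effect; nearly all actives have a fitted effect of over 65% in size; a mitochondrial uncoupler was the plate control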
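Cells are seeded, rested 12 hours, then given compound at five concentrations or DMSO for 24 hours. After fixation, blocking and antibody staining, PINK1 amount and mitochondrial localization are scored; CCCP serves as control.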
Sfp PPTase inh: Sfp phosphopantetheinyl transferase inhibition; hit rate 3.5% among 310,000; Q9F4F7; Biochemical Sfp PPTase activity, qHTS; Potency, µM, for the others: max response, negative = inhibition, usual class: inhibitors; AID 1490; active = well fitted inhibition curve with a large enough effect; inconclusive = small, poorly fitted or top-dose-only effect, or another doubt; inactive = no such curve, though single readings can be large or run the other way;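 also: the enzyme is Sfp with the accession as filed and its product quenches rhodamine fluorescence; potency is read from the fitted curve at half-maximal effect; 0% = enzyme reaction without inhibitor and -100% = no enzyme wells; top concentration of the series not given in the record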
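Sfp 15 nM + cpd, 15 min RT; start w/ rhodamine-CoA 5 uM, BHQ-2-YbbR 12.5 uM (final); 50 mM Hepes pH 7.6, 10 mM MgCl2, 0.01% NP-40, 0.01% BSA; read 525/598 nm at 0 and 30 min.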
* = called active by the depositor; ? = inconclusive; · = no result given; & = joins results of further samples; [ ] = another dose, or the depositor's remark.

SMILES | CtBP-E1A blk | D2 ag | D2 PAM | TRPV1 PAM | Six1-Eya2 inh | PINK1 expr mod | Sfp PPTase inh
Cc1cc([N+](=O)[O-])ccc1N(C)C | -5 | -4.7 | -4 | 10 | 1 | 6.5% | 9%
O=C(NCCc1ccccn1)c1nc(Cn2ccc([N+](=O)[O-])n2)no1 | 3 | -1.4 | -7 | 5 | -1 | 0.4% | 16%
Cc1ccc(-n2ncc(C(=O)NCC3CCN(C4CCCC4)C3)c2C2CCN(C(=O)OC(C)(C)C)CC2)cc1C (stereo not given) | -1 | -0.9 | -18 | 1 | 0 | -0.6% | 16%
O=C(N/N=C/c1ccccc1)c1ccco1 | 8 | 1.2 | -2 | -13 | 2 | 2.0% | 19%
O=[N+]([O-])c1ccccc1-c1ccc(CN2CCN(c3ccccc3)CC2)o1 | ? | ? | -18 | 9 | -30 | 1.0% | ?
COc1ccc(C(=O)Nc2cc(S(=O)(=O)N3CCCCC3)ccc2OC)cc1 | 0 | -7.5 | -2 | -11 | 3 | 7.3% | ·
CN(c1ccc(C(=O)N2CCN(Cc3ccc4c(c3)OCO4)CC2)cc1)S(=O)(=O)c1ccccc1 | -9 | 9.1 | 8 | -13 | -9 | 1.2%[38.3 µM] | 11%
CC[C@@H]1Cc2[nH][nH]c(=O)c2[C@@H](c2ccc(F)cc2)O1 | -1 | · | · | · | -9 | 1.0% | ·
C[C@@H]1CCC[C@]2(O[C@@H](CCO)C[C@@H](O)[C@@H]2O)O1 | 2 | 0.0 | -6 | · | 10 | 0.4% | ·
CC(=O)Nc1ccc(NC(=O)COc2ccc(S(=O)(=O)NC(C)c3ccccc3)cc2)cc1 (stereo not given) | 0 | 5.7 | -1 | 19 | 5 | 0.2% | 13%
CN(C)c1ccc(C(c2nnnn2C(C)(C)C)N2CCN(C(=O)c3ccco3)CC2)cc1 (stereo not given) | -2 | -0.2 | 13 | -1 | 0 | -2.5% | -24%
CCN1C(=O)c2cccc3c(S(=O)(=O)N(C(=O)c4cccnc4)c4ccc(OC)cc4)ccc1c23 | -13 | 2.9 | 14 | 1 | -21 | 0.1% | 16%
Cc1cc(C)n(/N=C/c2cccc(O)c2)c(=O)c1C(N)=O | -3 | 2.3 | -7 | 23 | 7 | -1.7% | 8%
COc1ccc(OC)c(NS(=O)(=O)c2cccs2)c1 | 4 | -2.7 | 1 | 6 | 7 | -1.2% | 18%
CCc1nnc(NC(=O)[C@@H](NC(=O)c2cccc(S(=O)(=O)N3CCOCC3)c2)C(C)C)s1 | -7 | -2.6 | -36 | -9 | -5 | -2.4% | 1%

Brought forward from above: 3 entries, followed by the next part.
SMILES | CtBP-E1A blk | D2 ag | D2 PAM | TRPV1 PAM | Six1-Eya2 inh | PINK1 expr mod | Sfp PPTase inh
Cc1cc(C)n(/N=C/c2cccc(O)c2)c(=O)c1C(N)=O | -3 | 2.3 | -7 | 23 | 7 | -1.7% | 8%
COc1ccc(OC)c(NS(=O)(=O)c2cccs2)c1 | 4 | -2.7 | 1 | 6 | 7 | -1.2% | 18%
CCc1nnc(NC(=O)[C@@H](NC(=O)c2cccc(S(=O)(=O)N3CCOCC3)c2)C(C)C)s1 | -7 | -2.6 | -36 | -9 | -5 | -2.4% | 1%
CCOC(=O)NCc1ccc2c(c1)cc(C)n2C | -3 | -1.5 | -12 | 3 | -9 | 2.6% | -7%
O=C1/C(=C/c2ccccn2)SC(=S)N1Cc1ccccc1 | -15 | 2.5 | -24 | 12 | -9 | 0.2% | 22%
N#Cc1ccccc1-c1ccccc1C(=O)N1CCCCC1 | 4 | -0.6 | 1 | 5 | 3 | 1.4% | 12%
CCOc1ccccc1NC(=O)C(NC(=O)C1CCC(C)CC1)C(C)C (stereo not given) | -5 | 2.4 | -6 | -7 | 8 | -0.1% | 15%
CCOc1ccc(-c2nnn(CC(=O)N3CCCC3)n2)cc1OCC | 6 | -1.6 | -12 | ? | 9 | -2.7% | -2%
C=C(C)CNC(=S)N/N=C(\C)c1ccc(Cl)s1 | -5 | -8.1 | -35 | 12 | -12 | 8.5% | 29%
CC(=O)Nc1cccc(OCCCNC(=O)c2ccc(C(C)(C)C)cc2)c1 | -3 | -2.4 | -4 | -17 | -1 | 1.4% | 8%
CCNc1nc(N)nc(Oc2ccc(OCc3ccccc3)nn2)n1 | 0 | -2.4 | -16 | 10 | 4 | -0.9%[38.3 µM] | 12%
O=C(NN=C1C2CC3CC(C2)CC1C3)c1cccs1 | 7 | 0.6 | -7 | -28 | 1 | 6.2%[38.3 µM] | -10%
COc1ccccc1-c1nnc(SCC(=O)Nc2ccc(Cl)cc2Cl)o1 | 2 | -3.0 | -13 | -3 | -2 | 3.1%[38.3 µM] | 15%
CCCCCc1nc(N)c(C#N)c(-c2ccco2)c1CCCC | 10 | -1.8 | 0 | -8 | 3 | 3.3% | 9%
COc1ccc(-c2cc(C(=O)NCC(c3ccco3)N(C)C)c3ccccc3n2)cc1OC (stereo not given) | 0 | -4.5 | -25 | 4 | -5 | 3.6% | ·
COC(=O)[C@]1(Cc2ccccc2)N[C@H](CN(C)S(=O)(=O)c2ccc(F)cc2)[C@@H]2C(=O)N(C)C(=O)[C@@H]21 | 3 | -0.4 | · | · | -3 | -0.5% | ·
CC[C@]1(C(=O)OC)[C@H]2C(=O)N(C)C(=O)[C@H]2[C@H]2CN(C)C(=NCc3ccccc3)N21 | 14 | 2.5 | -1 | · | 7 | 0.4% | ·
CCn1nc(C)c(CNC(=O)c2cc(COc3cncc(Cl)c3)on2)c1C | 2 | -1.2 | 0 | 28 | 4 | -0.8% | 6%
COc1ccc(CCN(Cc2cc3cccc(C)c3[nH]c2=O)C(=O)N2CCCC2)cc1OC | -6 | 0.8 | -12 | 3 | -6 | 1.2% | ?
COc1ccc(Cl)cc1C(=O)NNC(=O)CNC(=O)c1ccc(C)s1 | -1 | -2.3 | -5 | · | 0 | 1.0% | ·
COC(=O)Cn1cnc2sc(C)c(S(=O)(=O)N3CCN(c4ccccc4OC)CC3)c2c1=O | 5 | -1.9 | -23 | -9 | 4 | -1.2% | 2%
Cc1ccc(-c2csc(NC(=O)c3ccc(F)cc3)c2C(=O)O)cc1 | -8 | 1.9 | -1 | 5 | -4 | 2.4% | 13%
CCc1ccccc1NC(=O)CN(C)C(=O)COc1ccc(C)nc1[N+](=O)[O-] | -6 | -0.2 | 1 | 4 | 8 | 2.7% | 17%
Cc1cccc(NC(=O)CN(C2=NC3CS(=O)(=O)CC3S2)c2ccccc2F)c1 (stereo not given) | 5 | -0.9 | -2 | -18 | 3 | -1.1% | 11%
O=C(c1cnn2ccccc12)N1CCc2ccccc21 | 2 | 0.6 | -6 | -16 | -3 | 2.0% | 0%
O=C(CCNC(=O)c1ccc([N+](=O)[O-])cc1)NCCCN1CCCC1=O | -5 | -4.1 | -2 | -19 | 11 | -0.3% | -4%
CCCN1CCN(CCCNC(=O)c2ccc3c(Cl)c4c(nc3c2)CCCC4)CC1 | -3 | -2.4 | -22 | -6 | -3 | -2.3% | -1%
COc1ccc(NC(=O)CCNS(=O)(=O)c2cccc3nonc23)c(OC)c1 | -6 | -3.1 | -6 | 7 | 5 | 1.8%&1.8% | 8%
O=C(O)c1cccc2c1C(=O)N(C1CCCCC1)C2 | 3 | -2.2 | -3 | -1 | 2 | -0.2% | 3%
O=C(NCCN1CCN(c2cccc(Cl)c2)CC1)c1ccc(CSc2nc3ccncc3[nH]2)cc1 | -13 | 9.3 | -13 | ? | -12 | -1.2% | 5%
CC(C)(C)C1CCc2onc(C(=O)Nc3ccc(F)cc3F)c2C1 (stereo not given) | 28 | -1.6 | -6 | -7 | 6 | 4.6%[38.3 µM] | -2%
COC(=O)CN(c1ccc(C)c(Cl)c1)S(C)(=O)=O | 1 | -0.8 | 3 | 24 | 6 | -2.5% | -7%
CC(C(=O)NCc1cccc(Cl)c1)N1C(=O)c2ccccc2C1=O (stereo not given) | 8 | -2.6 | -3 | -26 | 16 | 2.1% | 9%
CCCOc1ccc(C(CC(=O)O)NC(=O)C23CC4CC(CC(C4)C2)C3)cc1 (stereo not given) | 7 | -3.8 | -7 | 3 | 2 | 8.1%[38.3 µM] | 29%
CC(C)(C)c1ccc(C(=O)NNc2cc(Cl)cc(Cl)c2)cc1 | · | -3.1 | -18 | 1 | 13 | 4.3% | 14%
Cc1ccc2c(c1)Sc1ccccc1CC2=O | 10 | -3.4 | 3 | -5 | 26 | 16% | -22%
COc1cnc(-c2ccccn2)nc1Sc1ccccc1Cl | ? | -2.4 | -16 | -10 | ? | -3.7%[38.3 µM] | -25%
CCOC(=O)c1c(NC(=O)C[n+]2ccc(Cc3ccccc3)cc2)sc(C)c1C | -3 | -3.7 | -17 | -22 | -4 | 2.6% | 25µM*
O=C(c1ccc2ccccc2c1)c1c[nH]cc1-c1ccccc1 | -15 | -0.7 | 1 | 0 | -19 | 7.7% | -1%
CC1CCCCN1C(=O)CSc1nnc(-c2ccco2)n1C (stereo not given) | 0 | 1.1 | 4 | -4 | -2 | -1.0% | 5%
COc1cc(CNC(=O)Nc2nc(C(N)Cc3ccc(C(F)(F)F)cc3)cs2)cc(OC)c1OC (stereo not given) | -8 | -13 | 0 | · | -7 | -0.4% | ·
CC(C)C(=O)Nc1cccc(-c2cn3ccsc3n2)c1 | -11 | 0.5 | -1 | 13 | -8 | -0.4% | 12%
CCCN1CCN(C(=O)CCCNC(=O)Cn2cnc3sc(C)c(C)c3c2=O)CC1 | 3 | -2.1 | -3 | 0 | 4 | -1.3% | 14%

Record cards (already shown). Order of screens: CtBP-E1A blk, D2 ag, D2 PAM, TRPV1 PAM, Six1-Eya2 inh, PINK1 expr mod, Sfp PPTase inh
CCN1C(=O)c2cccc3c(S(=O)(=O)N(C(=O)c4cccnc4)c4ccc(OC)cc4)ccc1c23 reads -13, 2.9, 14, 1, -21, 0.1%, 16%
Cc1cc([N+](=O)[O-])ccc1N(C)C reads -5, -4.7, -4, 10, 1, 6.5%, 9%
COC(=O)[C@]1(Cc2ccccc2)N[C@H](CN(C)S(=O)(=O)c2ccc(F)cc2)[C@@H]2C(=O)N(C)C(=O)[C@@H]21 reads 3, -0.4, ·, ·, -3, -0.5%, ·
